Compound activity (PubChem BioAssay)
Vif TR-FRET: HIV-1 Vif–A3G interaction blockers – biochemical, TR-FRET, GST-Vif 1-94, biotin-A3G peptide, dose response retest, primary screen (AID 1117319) | TR-FRET GST-Vif / biotin-A3G peptide binding; higher % means a stronger effect; test concentration not given here; strong numbers were not always called active | one-dose inhibition, %; IC50 in µM for titrated hits | hit rate 0.57% among 260,000;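 active = above the screen mean plus three standard deviations and confirmed in dose response; inconclusive = results disagree or hit not tested in dose response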;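 note: Vif residues 1-94 fused to GST binding biotinylated APOBEC3G peptide 110-148; 0% = full assay without inhibitor and 100% = GST in place of GST-Vif; retest series ran down from 100 µM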
ALR H2O2 inh: blocks human ALR sulfhydryl oxidase activity | P55789 | purified ALR, DTT oxidation, H2O2 HRP-luminol luminescence | inhibition, % (concentration not given with the values) | hit rate 3.8% among 290,000 | AID 485317;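 active = mean and each replicate at 75% or more; inconclusive = only one of the two met; inactive = neither met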;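 note: stock transfer was 7.5 nL into about 7.5 µL; 0% = neutral wells and 100% = wells with inactivated enzyme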
Target sequence (P55789 whole entry, looked up): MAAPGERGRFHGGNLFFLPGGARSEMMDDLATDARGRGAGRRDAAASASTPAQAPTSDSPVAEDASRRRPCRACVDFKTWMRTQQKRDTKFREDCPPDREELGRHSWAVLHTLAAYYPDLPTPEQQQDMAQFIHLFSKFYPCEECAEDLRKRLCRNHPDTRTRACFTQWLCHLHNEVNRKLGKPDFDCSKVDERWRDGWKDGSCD
HNF4A DNA FP: change in binding of human HNF4 alpha to DNA; hit rate 0.3% among 360,000; activity change, % at 10 µM; HNF4a-FITC DNA binding, fluorescence polarization, 1 h; in the data active = activity change above about 30%, passing the limit was not always enough;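 note: controls were the assay level and a saturating level of protein; the project sought stronger binding though the title names inhibitors; some compounds called inactive have numbers as strong as hits; positive values seem to mean higher polarization but the record does not say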
Target sequence (P41235 whole entry, looked up): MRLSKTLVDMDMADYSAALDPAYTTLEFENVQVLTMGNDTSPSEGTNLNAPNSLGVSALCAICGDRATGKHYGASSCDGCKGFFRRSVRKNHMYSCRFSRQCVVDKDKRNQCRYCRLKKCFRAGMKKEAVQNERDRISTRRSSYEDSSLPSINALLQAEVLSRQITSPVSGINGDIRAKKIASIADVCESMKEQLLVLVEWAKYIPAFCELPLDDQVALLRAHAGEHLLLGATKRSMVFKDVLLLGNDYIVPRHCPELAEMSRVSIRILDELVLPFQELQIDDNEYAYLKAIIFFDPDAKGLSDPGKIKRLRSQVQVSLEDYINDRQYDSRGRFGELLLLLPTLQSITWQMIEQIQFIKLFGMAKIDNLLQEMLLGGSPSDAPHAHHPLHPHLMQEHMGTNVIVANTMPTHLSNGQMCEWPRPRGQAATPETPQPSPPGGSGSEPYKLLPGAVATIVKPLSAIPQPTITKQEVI
RanGTP-Imp inh: disruptors of Ran-importin-beta complex formation – biochemical, FRET, CFP-Ran, YFP-importin-beta, homogeneous, primary screen. cell-free CFP-Ran/YFP-importin-beta FRET ratio. hit rate 1.1% among 300,000. AID 2216. inhibition, % (test concentration not listed);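 active = most replicates above 15%; inconclusive = exactly half above 15%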;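 note: 0% = DMSO wells and 100% = Ran loaded with GDP instead of GTP; wells of about 40 µL received 100 nL stock; the first replicate is given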
Calb FLC: C. albicans growth modulation with fluconazole. C. albicans CaCi-2 (fluconazole-resistant clinical isolate) + fluconazole, Alamar Blue growth, 48 h. growth inhibition, % (concentration not given with the values). hit rate 0.57% among 300,000. AID 1979;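 active = most replicates above 75%; inconclusive = exactly half above 75%; inactive = most below 75%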;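 note: all wells also contain fluconazole at 8 µg/ml as a sub-toxic cotreatment; 0% = median of DMSO wells and 100% = median of geldanamycin control wells; wells of about 8 µL received 7.5 nL stock; the first replicate is given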
Beta2AR agonist: activates human beta-2 adrenergic receptor causing internalization | response, % (test concentration not listed) | hit rate 0.43% among 340,000 | P07550 | Am2.2-beta2AR cells, FAP receptor internalization, flow cytometry; reference of the scale not given here;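 active = response above a set limit, near 3 SD of response in nonfluorescent compounds, cut at about 42% in these data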;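 note: stock transfer was 100 nL into about 11 µL; a reference agonist was the positive control; negative values mostly stem from fluorescent compounds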
Target sequence (P07550 whole entry, looked up): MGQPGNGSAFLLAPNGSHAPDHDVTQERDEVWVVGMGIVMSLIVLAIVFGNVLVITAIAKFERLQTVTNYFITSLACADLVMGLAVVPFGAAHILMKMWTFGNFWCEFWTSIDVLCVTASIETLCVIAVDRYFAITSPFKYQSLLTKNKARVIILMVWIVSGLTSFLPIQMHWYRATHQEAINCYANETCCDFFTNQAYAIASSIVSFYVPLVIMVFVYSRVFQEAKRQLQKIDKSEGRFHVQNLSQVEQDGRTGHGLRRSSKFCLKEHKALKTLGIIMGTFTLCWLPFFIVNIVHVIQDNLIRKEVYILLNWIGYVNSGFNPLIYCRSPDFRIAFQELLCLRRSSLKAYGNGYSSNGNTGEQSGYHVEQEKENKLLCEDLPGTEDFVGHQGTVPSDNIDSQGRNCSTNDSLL
LANA-H2B inh: blocks KSHV LANA binding to histone H2A/H2B. hit rate 0.6% among 320,000. cell-free LANA-H2A/H2B peptide, fluorescence polarization. inhibition, % (concentration not given with the values); in the data active = inhibition mostly above about 10%, no sharp cut-off; inactive = mostly below about 6.7%;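 note: stock transfer was 7.5 nL into about 10 µL; 0% = median of vehicle wells and 100% = median of positive control wells; one replicate is shown; the record names a cut of 25% in any replicate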
Numbers without * were called inactive; ? = inconclusive; nt = not tested or not shown; & = joins results of further samples.

SMILES | Vif TR-FRET | ALR H2O2 inh | HNF4A DNA FP | RanGTP-Imp inh | Calb FLC | Beta2AR agonist | LANA-H2B inh
C=CCSc1nc(-c2ccccc2)c2cc(Cl)ccc2n1 | -3% | nt | -2.5 | -0.6 | -1 | 26 | 1.4
O=C(/C=C/c1ccncc1)c1ccc(NC(=O)c2ccccc2F)cc1 | -5% | nt | -0.9 | nt | nt | 51* | 3.6
CC1CN(c2ccccc2)CCN1Cc1nc(Cc2ccccc2)no1 (centres undefined) | -5% | ? | 6.8 | -1.5 | 2 | -1 | -1.5
COC(=O)c1cn(CC(=O)Nc2ccccc2C)c2ccccc12 | nt | 1 | 3.8 | -0.1 | 0 | 6 | 7.2
c1cncc(-c2nc(NCCCN3CCOCC3)c3c4c(sc3n2)CCC4)c1 | 3% | 4 | 4.9 | 0.7 | -4 | 13 | 0.8
CNc1ccccc1C(C)(C)c1ccn[nH]1 | -3% | -1 | 3.6 | -0.2 | 8 | 8 | -1.1
CCCn1c(Nc2ccc(Cl)cc2)nc2ccccc21 | 3% | -6 | 1.8 | 2.5 | -16 | -11 | 10
Cc1ccc(/C=C2\SC(=S)N(/N=C/c3cc([N+](=O)[O-])ccc3O)C2=O)o1 | nt | 98* | -44 | 7.2 | ? | 2 | 4.6
Cc1oc2c(O)c(O)ccc2c(=O)c1-c1cnn(-c2ccccc2)c1 | 28% | 100* | -2.0 | -0.4 | -5 | -11 | -2.6
N#Cc1c(NC(=O)CSc2nc(-c3ccco3)cc(C(F)(F)F)n2)sc2c1CCCC2 | -3% | -7 | 4.8 | nt | nt | -3 | -0.6
O=C(N/C(=C/c1ccc(Br)cc1)C(=O)N1CCOCC1)c1ccco1 | nt | -5 | 2.1 | 0.6 | -5 | -6 | 6.5
CCOc1cccc(/C=C2\NC(=S)N(c3ccccc3)C2=O)c1O | 9% | ? | 1.0 | -3.5 | -3 | 5 | -6.5
O=C(CNC(=O)c1cccs1)Nc1ccc2c(c1)OCCO2 | -4% | -2 | -4.0 | 3.5 | -6 | -7 | 0.2
Cc1cc(C)nc(SCC(=O)Nc2ccc(S(=O)(=O)Nc3nccs3)cc2)n1 | 4% | 13 | -63 | 3.4 | -3 | -10 | 0.5
CCC(=O)Nc1cccc(C(=O)OCc2cccc([N+](=O)[O-])c2)c1 | nt | nt | -2.4 | -0.8 | -6 | 6 | nt
CC(C)N1CN(c2ccccc2)C(=S)N(c2ccccc2)C1 | -5% | -5 | -3.5 | -0.1 | -4 | 4 | -2.6
CN(C)/C=C/C(=O)c1ccc(-n2cccc2)cc1 | nt | 2 | -0.7 | 0.7 | 4 | -8 | 2.3
Cn1c(=NC(=O)C2CCN(S(=O)(=O)c3cccs3)CC2)sc2ccccc21 | -38%&23% | -2 | -1.3&1.2 | 1.3 | -9 | 0&-3 | 1.2
Cc1cc2c(c(=O)o1)C(c1cccs1)C(C#N)=C(N)O2 (centres undefined) | 31% | 8 | 2.5 | ? | -4 | 2 | 1.2
Cc1ccccc1CNC(=O)CC1C(=O)NCCN1CC1CCCCC1 (centres undefined) | 7% | -12 | 1.7 | 5.7 | -13 | 1 | 0.9
CCOC(=O)N1CCC(NC(=O)C2CCN(C(=O)c3cc4oc(C)cc4n3Cc3c(F)cccc3Cl)CC2)CC1 | nt | -11 | 5.4 | 2.9 | 6 | 11 | -3.7
COc1ccccc1OC(C)C(=O)Nc1ccc(S(=O)(=O)Nc2nccs2)cc1 (centres undefined) | nt | 0 | -2.3 | -1.9 | 15 | 18 | 4.4
CCN=C1S/C(=C/c2ccc(-c3ccc(F)cc3)o2)C(=O)N1CC | -7% | 4 | -0.3 | 10 | 1 | 3 | -0.9
Cc1cc(C)n2nc(S(=O)(=O)N(C)Cc3ccccc3)nc2n1 | -7% | -12 | 2.9 | 4.8 | -9 | -6 | -4.7
O=C(N/N=C/c1cc([N+](=O)[O-])ccc1O)/C(=C\c1cccs1)NC(=O)c1ccccc1 | nt | -7 | 1.1 | 0.8 | 116* | 8 | 3.9

Next structures:
SMILES | Vif TR-FRET | ALR H2O2 inh | HNF4A DNA FP | RanGTP-Imp inh | Calb FLC | Beta2AR agonist | LANA-H2B inh
Cc1sc2ncnc(N(C)CCc3ccccn3)c2c1C | 18% | -14 | -1.0 | 3.9 | 6 | 5 | -0.3
COc1cccc(CNC(=O)CCCn2ccc3cc(S(=O)(=O)N4CCCC4)ccc32)c1 | nt | -2 | -0.3 | 5.1 | 1 | 0 | -1.8
Oc1cccc(C=Nc2cccc3ccccc23)c1O | nt | nt | -3.4 | 9.9 | 17 | 15 | -4.4
CC(=O)N1C(=O)/C(=C2\SC(=S)N(c3c(C)n(C)n(-c4ccccc4)c3=O)C2=O)c2ccccc21 | 28% | -56 | 2.9 | 4.2 | -2 | 19 | 2.7
O=C(NN=C1CCC(c2ccccc2)CC1)c1ccccc1-n1cccc1 (centres undefined) | -3% | nt | 4.0 | 1.8 | -5 | -1 | nt
O=C(CCN(NC(=O)c1ccccc1)C1=NS(=O)(=O)c2ccccc21)NC1CCCCC1 | nt | -8 | 1.3 | 4.9 | -2 | 5 | -1.0
Cc1ccc(NC(=O)CCC(=O)NNC(=O)C(C)(C)C)c(C)c1 | nt | -26 | 4.9 | -1.7 | -1 | 5 | 2.9
CS(=O)(=O)N(CC(=O)Nc1ccccc1)Cc1ccc(Cl)cc1 | 5% | nt | 0.2 | 1.3 | ? | 6 | nt
c1ccc2[nH]c(-c3ccc4c(c3)OCO4)nc2c1 | nt | 0 | 6.0 | 2.7 | -19 | -13 | 1.3
CC(=O)N1c2ccc(S(=O)(=O)N3CCC(C(=O)NCc4ccc(Cl)cc4)CC3)cc2CC1C (centres undefined) | nt | -1 | -5.8 | 6.9 | 4 | 0 | 6.0
Cc1cccc(NCC(=O)N/N=C\c2ccccn2)c1 | 0% | 43 | 1.9 | 1.2 | 8 | -8 | 1.7
O=C(COc1ccccc1)NC(=S)Nc1ccc(Br)cn1 | 4% | -2 | 4.2 | 1.4 | 34 | 1 | -1.4
COc1ccccc1N1CCN(S(=O)(=O)c2ccc(-c3cnc(C4CC4)o3)cc2)CC1 | ? | 19 | -11 | 0.5 | 1 | -5 | 3.2
Cc1nn(CC(O)COc2ccc3c(c2)CCC3)c(C)c1Br (centres undefined) | -2% | -6 | -1.6 | 6.1 | 1 | -11 | -9.0
COc1ccc(C)cc1Nc1nc(-c2ccccc2O)nc2ccccc12 | -82% | -1 | -0.8 | 1.3 | 8 | -2 | 1.2
Cc1sc(NC(=O)c2ccco2)nc1-c1ccccc1 | 6% | 4 | 2.6 | 3.8 | 25 | -3 | -3.1
COc1ccc(OC)c2c1cc(C(=O)N[C@@H](C)C(=O)N[C@@H](C(=O)O)c1ccccc1)n2C | 0% | 19 | 2.5 | 1.5 | 2 | 1 | 4.1
CCOC(=O)CSc1nc2sc3c(c2c(=O)n1CC)CC(C)(C)OC3 | -4% | -10 | 3.5 | -1.0 | 6 | -5 | -1.7
O=C(NC(N1CCCCCC1)C(Cl)(Cl)Cl)c1ccccc1Cl (centres undefined) | -6% | -4 | -1.5 | 0.1 | -5 | 10 | -2.5
Cc1nnc2sc(SCC(=O)Nc3ccc(Br)cc3)nn2c1=O | 21% | 97* | 2.4 | -3.5 | 9 | 6 | 2.3
COc1cccc(-c2noc(CCC(=O)NCCc3ccccc3)n2)c1 | 0% | nt | 1.3 | 3.3 | -4 | 5 | 3.8
CCC1(c2ccccc2)NC(=O)N(CC(=O)Nc2ccccc2C(=O)N2CCCCC2)C1=O (centres undefined) | 0% | -2 | 0.6 | -0.5 | -3 | -2 | 1.4
COC(=O)C1CCN(C(=O)c2ccc(OC3CCN(Cc4ccccn4)CC3)cc2)CC1 | 1% | -4 | -2.1 | -6.4 | -10 | 3 | -0.2
COc1ccc(-n2cc(CN(C)C3CCOCC3)c(-c3cccc(F)c3)n2)cc1 | 3% | nt | 3.9 | 1.6 | -20 | -2 | 3.2
CCOC(=O)NC(NCc1cccc(C(F)(F)F)c1)(C(F)(F)F)C(F)(F)F | ? | 7 | -2.4 | -2.1 | 1 | 5 | -3.1

Next part.
SMILES | Vif TR-FRET | ALR H2O2 inh | HNF4A DNA FP | RanGTP-Imp inh | Calb FLC | Beta2AR agonist | LANA-H2B inh
CCC(C(=O)N1CCOCC1)n1c2ccccc2c2nc(=O)cc(C)n21 (centres undefined) | nt | -8 | 0.0 | 2.5 | -1 | 4 | 6.9
Cc1ccc(NC(=O)CCN2C(=O)NC3(CCCC3)C2=O)cc1 | -5% | nt | -1.4 | nt | nt | 5 | nt
CC(CN1CCCC1)C(=O)NN (centres undefined) | nt | 1 | -0.1 | 2.2 | -30 | -1 | 0.9
Cc1ccc(NC(=O)c2cc(NC(=O)c3ccco3)ccc2N2CCCCC2)cc1 | 30% | -6 | -1.0 | 6.0 | -2 | 8 | -0.6
CCCc1ccc(C(=O)/C=C/N(C)C)cc1 | 7% | 6 | -1.2 | -4.7 | -31 | 2 | 4.4
CCN(CC)CCNC(=O)c1ccccc1N | -8% | -38 | -1.1 | 5.7 | -4 | 1 | -7.8
CCN(CC)CCNC(=O)c1cc(S(=O)(=O)N2CCc3ccccc32)cn1C | nt | -10 | 3.6 | -2.0 | -12 | -9 | -2.7
CCCCCCOc1ccc(C(CC(=O)NC)C(=O)O)cc1 (centres undefined) | 5% | -2 | -2.3 | -1.4 | -22 | 3 | 0.1
Cc1cc(-c2nnnn2-c2ccc(C(F)(F)F)cc2)no1 | -3% | -1 | 7.0 | -0.1 | -11 | -1 | 6.5
C[C@H](CO)N1C[C@H](C)[C@@H](CN(C)S(=O)(=O)c2cn(C)cn2)Oc2ccc(NC(=O)Cn3cnnn3)cc2C1=O | nt | -14 | -0.4 | nt | nt | -2 | 1.1
O=C(CSc1ncnc2c1oc1ccccc12)Nc1cccc(C(F)(F)F)c1 | 6% | -25 | 1.2 | 0.8 | -8 | -6 | -3.6
COc1ccc(-n2nc3c(N4CCC(C(=O)NCCc5ccco5)CC4)nnc(C)c3c2C)cc1 | nt | 3 | -0.2 | 0.3 | -5 | 2 | -3.9
C/C(=N\Nc1nc2ccccc2s1)c1ccc2c(c1)OCO2 | 18% | 7 | -3.6 | -3.3 | 7 | 0 | -1.0
COC(=O)c1c(NC(=O)C(C)C)sc(C(=O)N2CCOCC2)c1C | -3% | nt | -4.0 | ? | 2 | -3 | -1.4
Cc1ccc2cccc(SCC(=O)Nc3ccc(F)cc3)c2n1 | -8% | 2 | 1.1 | 8.6 | -13 | 3 | -4.7
COc1ccccc1C1=NOC(C)(c2nnc(-c3cccc(Cl)c3)o2)C1 (centres undefined) | nt | 1 | 0.5 | 3.2 | 1 | -4 | 0.5
O=C(NCCc1ccc(Cl)cc1)C1CCCN(S(=O)(=O)c2cnc[nH]2)C1 (centres undefined) | -4% | 12 | 1.1 | 3.6 | 24 | 7 | 2.2
CC(C)(C)n1cnc2cc(NC(=O)c3ccc(Cl)cc3)ccc21 | -9% | 74 | 0.2 | 1.7 | 63 | -1 | -0.8
CCOC(=O)CCC(=O)NNC(=O)COc1ccc(C(C)C)cc1Br | -3% | -1 | 2.9 | 6.1 | 13 | 1 | -0.8
COc1ccccc1-c1cn(-c2ccccc2)c(=S)[nH]1 | -11% | nt | -2.2 | 2.7 | 9 | 2 | -4.3
O=C(CN1C(=O)C2CC=CCC2C1=O)Nc1ccc(-c2nnc3n2CCCCC3)cc1 (centres undefined) | 2% | 2 | 3.3 | ? | -3 | -9 | -4.2

2 entries from above, with values under each structure.
Under each structure: Vif TR-FRET | ALR H2O2 inh | HNF4A DNA FP | RanGTP-Imp inh | Calb FLC | Beta2AR agonist | LANA-H2B inh
- O=C(CN1C(=O)C2CC=CCC2C1=O)Nc1ccc(-c2nnc3n2CCCCC3)cc1 (centres undefined)
  2% | 2 | 3.3 | ? | -3 | -9 | -4.2
- Cc1cc2c(c(=O)o1)C(c1cccs1)C(C#N)=C(N)O2 (centres undefined)
  31% | 8 | 2.5 | ? | -4 | 2 | 1.2
